Tgondii IFNg: T. gondii growth inhibition under IFN-gamma | Toxoplasma gondii growth in IFN-gamma-treated host cells; hits give low values; reference of the scale not given here | actives 3.8% (n = 69,000) | activity change, negative = inhibition, %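 (about 20 µM by stock and volumes)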 | AID 1259416;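 active = below -70%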;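 note: host cells are HeLa cells infected with Toxoplasma gondii; parasite growth read as luciferase light; one replicate is shown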
* = called active by the depositor; i = inactive. A portion of the library, so the mix of outcomes need not match the whole.

SMILES | Tgondii IFNg
O=C(NCC1(O)CCCNCC1)C1(c2ccc(Cl)cc2)CCCCC1 (stereo not given) | -1
Cc1ccccc1N1CCCN(Cc2ccc(N3CCNC3=O)cc2)CC1 | 2
O=C(Cc1ccccn1)N1CC(=O)N2[C@H](CO)[C@H](c3ccc(C#CCC4CCCC4)cc3)[C@H]2C1 | -55
CCOc1ccc(S(=O)(=O)NCc2nc(-c3cccc(Cl)c3)oc2C)cc1 | 33
CC(C)(C)C(=O)N1CCN(C2c3ccccc3-c3ccccc32)CC1 | -94*
CC(C)C(=O)NCCc1nc(NC(C)c2ccccc2)ncc1C(N)=O (stereo not given) | 2
CCc1ncc(CN2CCc3c([nH]c4ccc(Cl)cc34)C2)cn1 | 120
COc1cccc(-c2nc3c(s2)CN(S(=O)(=O)c2cc(C)ccc2C)CC3)c1 | -102*
OC[C@H]1[C@H](c2ccc(C#CC3(O)CCCC3)cc2)[C@H]2CN(Cc3cncnc3)CCCCN21 | -7
N#C[C@@H]1[C@H](c2ccccc2C2=CCCC2)[C@H](CO)N1C(=O)NC1CCCCC1 | -5
Cc1nc(CN2CCC3(C2)CN(CC(=O)O)C3)cs1 | -17
Cc1ccc(SCCN(C)C(=O)CC2CCOCC2)cc1 | 2
Cc1cc(NC(=O)c2ccccn2)nn1Cc1ccccc1 | 193
CCO[C@H]1COC[C@@H]1NC1CCC2(CCNCC2)CC1 | 1
COc1cccc(CN2CCN(CC(C)C)C(=O)C2C)c1O (stereo not given) | -69

A different layout for part of the listing above:
| canonical_smiles | Tgondii IFNg |
| --- | --- |
| CC(C)(C)C(=O)N1CCN(C2c3ccccc3-c3ccccc32)CC1 | -94* |
| CC(C)C(=O)NCCc1nc(NC(C)c2ccccc2)ncc1C(N)=O (stereo not given) | 2 |
| CCc1ncc(CN2CCc3c([nH]c4ccc(Cl)cc34)C2)cn1 | 120 |
| COc1cccc(-c2nc3c(s2)CN(S(=O)(=O)c2cc(C)ccc2C)CC3)c1 | -102* |

Next part.
SMILES | Tgondii IFNg
O=C(NCCSCc1ccco1)Nc1ccc(OCc2ccccc2)cc1 | -4
CCC(C(=O)OC)n1nc(C2CCNCC2)n(Cc2ccccc2)c1=O (stereo not given) | -58
COc1ccc(Br)cc1S(=O)(=O)NC(=O)/C=C/c1ccccc1Cc1ccc2ccccc2c1 | 0
COc1ccccc1C1=NOC(C)(C(=O)Nc2ncc(-c3ccc(F)cc3)n2C)C1 (stereo not given) | -3
CC(C)n1c(C(=O)N2CCN(c3ccncc3)CC2)cc2c1c1ccccc1n2C | -58
COC(=O)[C@@H]1C[C@@H](N(C)C)CN1C(=O)c1cc(C2CC2)nc2onc(C)c12 | 8
Cc1cc(C(=O)N2CCC3(C2)C(=O)N(C(C)C)CCN3CC#N)n[nH]1 (stereo not given) | -4
Cc1nc(-c2ccccc2)[nH]c(=O)c1CC(=O)N1CCN(c2nccs2)CC1 | -6
Clc1ccccc1CNc1nc(-c2nnc(-c3ccccc3)o2)nc2ccccc12 | -49
CC(=O)Nc1ccc(Cl)c(C(=O)NCCCCc2ccccn2)c1 | -4
Cc1ccc(NC(=O)NCC(c2cccnc2)c2cn(C)c3ccccc23)c(C)c1 (stereo not given) | 153
CCCN(Cc1cccc(Cl)c1)C(=O)c1ccoc1 | -3
CCn1c2ccccc2c2cc(Nc3ccnc(NCCCN4CCOCC4)n3)ccc21 | -68
COc1ccccc1C(C)N(C)C(=O)c1cccc(F)c1OC (stereo not given) | -54
CCOc1ccccc1NC(=O)Cn1c(=O)cc(C(=O)N2CCOCC2)c2ccccc21 | 8

Single values from the results shown:
Under Tgondii IFNg, CCC(C(=O)OC)n1nc(C2CCNCC2)n(Cc2ccccc2)c1=O (stereo not given) is listed with -58
Under Tgondii IFNg, COc1ccccc1C(C)N(C)C(=O)c1cccc(F)c1OC (stereo not given) is listed with -54
Under Tgondii IFNg, COC(=O)[C@@H]1C[C@@H](N(C)C)CN1C(=O)c1cc(C2CC2)nc2onc(C)c12 is listed with 8
Under Tgondii IFNg, CCOc1ccccc1NC(=O)Cn1c(=O)cc(C(=O)N2CCOCC2)c2ccccc21 is listed with 8
Under Tgondii IFNg, CC(C)n1c(C(=O)N2CCN(c3ccncc3)CC2)cc2c1c1ccccc1n2C is listed with -58
Under Tgondii IFNg, CCOc1ccc(S(=O)(=O)NCc2nc(-c3cccc(Cl)c3)oc2C)cc1 is listed with 33
Under Tgondii IFNg, OC[C@H]1[C@H](c2ccc(C#CC3(O)CCCC3)cc2)[C@H]2CN(Cc3cncnc3)CCCCN21 is listed with -7

Other results:
SMILES | Tgondii IFNg
COCC1CN(Cc2ccc(C)s2)Cc2nn(CC3CC3)cc21 (stereo not given) | -14
CN1C(=O)c2cc(NC(=O)Nc3ccccc3F)ccc2OC[C@H]2O[C@H](CC(=O)NCCc3ccncc3)CC[C@@H]21 | 12
O[C@@H]1CN(c2ncnc3nc[nH]c23)CC[C@H]1c1ccc2c(c1)OCO2 | 1
CCOC1C2CCC1N(C(=O)c1ccc[nH]1)C2 (stereo not given) | -16
CCc1ccc(-c2cc3c(=O)n(Cc4nc(-c5ccc(OC)cc5)oc4C)ccn3n2)cc1 | 51
Cn1cnc(-c2ccccc2)c1-c1ccc(-n2cncn2)cc1 | -9
CCOC(=O)[C@@]12CCCN(C(=O)C3CCOCC3)C[C@@H]1CN(C(C)=O)C2 | 1
CCOC(=O)C1(Cc2cccc(OC)c2)CCCN(Cc2ccc(N3CCNC3=O)cc2)C1 (stereo not given) | -9
Cc1ccc(N2CCN(C(=O)c3ccc(-c4csc(C5CC5)n4)cc3)CC2)c(C)c1 | 9
COc1ccc(NC(=O)CN2CCC3(CC2)N=C(c2cccc(C)c2)C(=O)N3)c(OC)c1 | 62
N#Cc1cccc(N2CCOCC3(CCCN(Cc4ccncc4)C3)C2)n1 (stereo not given) | 11
Cc1ccsc1-c1cn(C(C(=O)N(C)C)c2ccccc2)nn1 (stereo not given) | 323
C[C@H]1CN([C@@H](C)CO)C(=O)CCCn2nncc2CO[C@H]1CN(C)Cc1ccc2c(c1)OCCN2C | 92
CCS(=O)(=O)N1CC2(C1)[C@@H](c1ccccc1)[C@H](CO)N2Cc1ccccn1 | 65
COc1ccc2cc(CN(CCO)C(=O)[C@@H]3C[C@@H]4C=C[C@H]3C4)c(=O)[nH]c2c1 | 25
COC(=O)c1cc(OC)cc(C(=O)Nc2cnc3n2CCCC3)c1 | -12
O=c1[nH]nc(CCc2ccccc2O)n1Cc1ccco1 | -18
CCc1nc(N2[C@@H](C#N)[C@H](c3ccccc3-c3ccccc3C)[C@@H]2CO)sc1C | 18
Cc1cccc(CN2C(=O)CO[C@H]3CN(C(=O)NC4CC4)C[C@@H]32)c1 | -5
Cc1ccc(C(=O)Nc2c(C(=O)N3CCCC3)[nH]c3ccc(C)cc23)cc1 | 5
O=C1CO[C@H]2CN(c3ncccn3)C[C@@H]2N1CC1CC1 | -28
Cc1cn(CCNC(=O)Cc2c(C)[nH]c3c(C)ccc(C)c23)nn1 | 6
COC(=O)C[C@H]1CC[C@H]2[C@@H](COC[C@H](O)CN2S(=O)(=O)c2cn(C)cn2)O1 | 25
CCOc1ccccc1NC(=O)CC(=O)N(C)Cc1snnc1C | 89
O=C(N[C@H]1C=C[C@@H](CC(=O)N2CCN(c3ccccc3)CC2)O[C@@H]1CO)c1ccccc1 | 15
COCCN1CCN(CC2CCOCC2)Cc2ccc(C)nc21 | -10
CNC(=O)C[C@@H]1CC[C@H]2[C@@H](COC[C@H](O)CN2Cc2ccccc2F)O1 | 43
CN1CC2(CCCN(C(=O)C3(c4ccc(Cl)cc4)CCC3)C2)OC1=O (stereo not given) | -16
CCN(CC)S(=O)(=O)N1CCN(Cc2ccc(N3CCCC3=O)cc2)CC1 | -8
Cc1nnc(-c2ccc3ccn(CC(=O)NCc4ccccn4)c3c2)o1 | 153
COc1ccc(S(=O)(=O)Nc2ccc3c(c2)C(=O)N([C@H](C)CO)C[C@@H](C)[C@H](CN(C)Cc2ccc(C(F)(F)F)cc2)OCCCC[C@@H](C)O3)cc1 | -119*
O=C(O)c1cc(=O)c2c3nc4ccccc4oc-3cc(=O)c2[nH]1 | 1
CN1CC2(CCN(Cc3nccs3)CC2)OCC1=O | -7
CN(CC1CCCCO1)c1ncnc2c1CCN(C(=O)c1cccnc1)C2 (stereo not given) | -2
COc1ccc(C2SC(C)C(=O)Nc3c2c(C)nn3-c2ccccc2)cc1OC (stereo not given) | 61
Cc1cc(C)c(NS(=O)(=O)c2cc3c4c(c2)CCC(=O)N4CCC3)c(C)c1 | -1
CON(C)C(=O)N1N=C(c2cc(F)ccc2F)S[C@@]1(CCCN)c1ccccc1 | -54
Cc1nc(-c2cccc(NS(=O)(=O)c3cn(C)nc3C)c2)cs1 | 10
CC(=O)Nc1cccc(-n2ccnc2-c2cccc(-n3cccn3)c2)c1 | -10
CCNC(=O)c1cc2c(c(-c3cccc(-c4cncnc4)c3)n1)[C@H](CCO)N(C(C)=O)C2 | 7
O=C(c1cc(-c2ccccc2)n[nH]1)N(Cc1nccs1)C1CC1 | 11
Cn1ncc(CN2CCN(c3ncnc4ccccc34)CC2)c1C1CC1 | -1
COCCN(Cc1cnn(C)c1)C(=O)c1cn(-c2ccccc2)nn1 | 29
Cc1ccnc(N2CCC(C(=O)Nc3cccc4ccccc34)CC2)n1 | -33
CN1C(=O)C(CC(=O)Nc2ccccc2)S/C1=N/c1nccs1 (stereo not given) | 4
CCCn1c(=O)c(-c2nc(-c3ccccc3C)no2)c(O)c2ccccc21 | -38
COC(=O)c1ccc(NC(=O)N2CCC3(CC2)Nc2cc(F)ccc2-n2cccc23)cc1 | 340
COc1ccc2c(c1)OC(C)(C)CC2NC(=O)CCc1cnccn1 (stereo not given) | 0
CC(C)(C)OC(=O)n1ccc2cc(Br)ccc21 | 57
Cc1nc(Cn2ccnc2-c2cccc(CN3CCOCC3)c2)cs1 | -1
C[C@@H]1CN([C@@H](C)CO)C(=O)CCCn2nncc2CO[C@@H]1CN(C)Cc1ccc2c(c1)OCCN2C | -36
CC(Cn1cncn1)C(=O)NC(C)C1CC2CCC1C2 (stereo not given) | 1
C[C@H](CO)N1C[C@H](C)[C@@H](CN(C)C(=O)Nc2ccc(C(F)(F)F)cc2)Oc2c(NC(=O)c3ccc(-c4nccs4)cc3)cccc2C1=O | -20
O=C1C(=O)N(CN2CCc3c([nH]c4ccccc34)C2C(F)(F)F)c2ccc(F)cc21 (stereo not given) | 43
CCOC(=O)c1cnc[nH]1 | 6
Cc1ccc(NC(=O)N2CCN(Cc3nc(-c4cccc(Cl)c4)oc3C)CC2)cc1Cl | -28
COCCN1CCO[C@H]2CCN(Cc3cncn3C)C[C@H]21 | 34
CC1N=C2c3ccccc3N=C(SCc3ccc(C(C)(C)C)cc3)N2C1=O (stereo not given) | -2
O=C(Cn1c(=O)ccc2cc(S(=O)(=O)N3CCCC3)ccc21)NC1CCCC1 | 20
c1ccc2nc(N3CCCC(Nc4ccc5c(c4)OCCO5)C3)cnc2c1 (stereo not given) | 448

Remaining list, next part:
SMILES | Tgondii IFNg
Cc1cccc(NC(=O)C(=O)NCCc2sc(-c3ccc(F)cc3)nc2C)c1 | -26
S=c1[nH]nc(C2CCCCC2)n1-c1ccccc1 | 14
C[C@@H]1CCCCO[C@H](CN(C)CC2CC2)[C@H](C)CN([C@@H](C)CO)C(=O)c2cc(NC(=O)c3ccccc3)ccc2O1 | 156
CN(C)C(=O)n1c(C(=O)NCCc2ccccc2)cc2c1c1ccccc1n2C | 10
CN1CCN2CCN(C(=O)CCOc3ccccc3)CC2C1=O (stereo not given) | 57
Cc1ccnc(-n2cccc2CN(C)Cc2nc(C)no2)c1 | -27
Cc1ccc(NC(=O)CN2C(=O)CCc3cc(S(=O)(=O)N4CCCCC4)ccc32)cc1N(C)C | 59
COc1ccc(CN2[C@@H](CO)[C@@H]3c4ccccc4NC[C@@H]32)cc1 | -2
CO[C@@H]1CC[C@@H]2[C@H]1OCCN2S(=O)(=O)c1c(C)nn(C)c1C | 2
COc1ccccc1CN1C[C@@H](C(=O)O)C[C@@H](C(=O)NCc2cccnc2)C1 | -46
COc1ccc(-c2nc(C)c(CCNS(=O)(=O)c3ccc(I)cc3)s2)cc1OC | i
Cc1ncsc1CCN(C)Cc1ccc(-n2ccnc2)cc1 | 37
CO[C@H]1CN(Cc2cccc3c(C)c(C)[nH]c23)CC[C@H]1N | -3
NC(=S)CS(=O)(=O)c1cccs1 | 81
CN(C)C(=O)c1cccc(-c2ccc3c(c2)[C@@H]2[C@@H](CCN2C(=O)Cc2ccccc2)[C@@H](CO)N3)c1 | -55
Cc1ccc(S(=O)(=O)N2C[C@H]3C[C@H](NC(=O)c4nn(C)cc4-c4ccno4)[C@H]3C2)cc1 | -10
O=c1ccc2cc(S(=O)(=O)N(Cc3ccco3)C3CCCC3)ccc2[nH]1 | 28
Cc1ccccc1-c1cn[nH]c1C1CCN(C(=O)c2c[nH]c(=O)[nH]2)CC1 | -57
CNC(=O)C[C@H]1C[C@@H]2CN(S(=O)(=O)c3ccc(C)cc3)C[C@@H]2O1 | -9
O=C(Cn1cc(C(F)(F)F)ccc1=O)N1C[C@@H]2[C@@H]3CC[C@@H](C3)[C@@H]2C1 | 68
O=C1CCCc2cnnn2COC[C@H](Cc2ccccc2)N1 | -23
Cc1oc(-c2ccc(Cl)cc2)nc1CN1CCCN(c2ccccc2)CC1 | 27
CNC(=O)[C@H]1O[C@@H](n2cnc3c(NCc4cccc(I)c4)nc(Cl)nc32)[C@H](O)[C@@H]1O | -67
Cc1noc(C)c1C1CCCN1C(=O)Cn1nc(C(F)(F)F)cc1C (stereo not given) | 5
CCN1CCC[C@@H]1Cn1ccnc1-c1ccc(OC)c(OC)c1 | -1
Cc1nnc(SCc2c(F)cccc2Cl)[nH]c1=O | 23
COc1cccc2c1OCCCN(Cc1ncccc1C(=O)O)C2 | 5
O=C(N1CCOCC1)N1c2ccccc2CC(N2CCOCC2)c2ccccc21 (stereo not given) | 4

Assay outcomes as filed in PubChem.
